# Bioassay records deposited in PubChem BioAssay by National Center for Advancing Translational Sciences (NCATS).
# TRPML1 ag: activates the human TRPML1 channel; Q9GZU1; TRPML1-expressing cells, Ca2+ dye fluorescence, FDSS; host cell line not named in the record; reference of the full effect not given here; activation, % (test concentration not listed); actives 0.12% (n = 410,000); in the data active = activation above about 50%; inconclusive = about 30% to 50%; inactive = below about 30%; further: 0% is about no effect; the text of the record puts the active cut at 80%
# Target sequence (Q9GZU1 whole entry, looked up): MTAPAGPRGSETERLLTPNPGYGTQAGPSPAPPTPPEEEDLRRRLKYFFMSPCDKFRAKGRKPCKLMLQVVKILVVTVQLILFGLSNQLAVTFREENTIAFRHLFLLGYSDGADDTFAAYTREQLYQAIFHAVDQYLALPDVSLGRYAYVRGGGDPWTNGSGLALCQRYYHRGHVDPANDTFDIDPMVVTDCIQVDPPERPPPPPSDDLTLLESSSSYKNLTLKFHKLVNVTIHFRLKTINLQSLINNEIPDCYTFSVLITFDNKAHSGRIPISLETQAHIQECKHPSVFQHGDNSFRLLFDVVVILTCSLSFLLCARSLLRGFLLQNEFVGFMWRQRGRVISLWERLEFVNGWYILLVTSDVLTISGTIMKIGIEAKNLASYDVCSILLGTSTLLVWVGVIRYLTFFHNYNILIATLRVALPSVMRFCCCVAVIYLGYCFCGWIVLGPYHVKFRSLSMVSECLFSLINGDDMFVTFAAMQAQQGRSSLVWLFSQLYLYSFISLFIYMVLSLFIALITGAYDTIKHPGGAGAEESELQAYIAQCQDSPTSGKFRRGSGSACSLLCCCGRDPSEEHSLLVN
#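 Cells: TRPML1-DL, 1X Tet inducer, ~16 h at 37 degrees C/5% CO2. Dye: ABD Ca8 no-wash + quencher, 45-90 min RT. Read: 10 s baseline, compound add, 110 s agonist phase; 54-4 EC80 (4uM final), 110 s antagonist phase.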
# PINK1 expr mod: modulators of PINK1 expression. actives 0.2% (n = 410,000). AID 624263. Potency, µM (highest dose often 76.6 µM), for the others: top-dose activation (PINK1 increase), usual class: activators. PINK1 immunofluorescence, high-content cytometry, 24 h; active = well fitted activation curve with a large enough effect; inconclusive = small, poorly fitted or top-dose-only effect; inactive = flat fitted curve, though single readings scatter; cell line not stated here;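 further: potency means the concentration at half of the fitted maximal effect; % of control where 0% means no effect; nearly all actives have a fitted effect of over 65% in size; a mitochondrial uncoupler was the plate control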
#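 Decision-based qHTS: stable cells, 24 h exposure to five compound concentrations, CCCP as control. Fixed cells stained for PINK1 plus nuclear, mitochondrial and cell markers, cytometer read.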
# D2 agonist: agonists of human D2 dopamine receptor (beta-arrestin); P14416; DiscoveRx PathHunter D2 beta-arrestin, luminescence, 90 min; 100% = 57 uM dopamine signal; activation, % (concentration not given with the values); actives 0.084% (n = 360,000); in the data active = activation above about 40%; inconclusive = about 15% to 40%; inactive = below about 15%; further: compound concentration not given in the record; the text of the record calls up to 30% inactive
# Target sequence (P14416 whole entry, looked up): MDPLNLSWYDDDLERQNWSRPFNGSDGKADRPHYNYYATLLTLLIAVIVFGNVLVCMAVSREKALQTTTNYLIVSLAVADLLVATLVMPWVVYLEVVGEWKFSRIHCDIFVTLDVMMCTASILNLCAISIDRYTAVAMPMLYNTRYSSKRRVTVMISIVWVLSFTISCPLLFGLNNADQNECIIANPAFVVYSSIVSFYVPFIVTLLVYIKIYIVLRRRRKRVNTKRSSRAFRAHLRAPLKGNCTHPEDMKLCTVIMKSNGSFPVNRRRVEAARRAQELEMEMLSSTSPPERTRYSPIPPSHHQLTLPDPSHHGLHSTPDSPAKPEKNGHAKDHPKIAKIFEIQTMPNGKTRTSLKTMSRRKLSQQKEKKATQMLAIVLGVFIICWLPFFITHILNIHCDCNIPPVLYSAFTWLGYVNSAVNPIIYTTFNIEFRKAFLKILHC
#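 Agonist mode: compounds alone added to overnight-plated D2 PathHunter cells for 90 min at 37 C, with 57 uM final dopamine (EC100) defining full response. Beta-arrestin recruitment detected by chemiluminescent reagent, read after 1 h at ambient temperature.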
# The depositor's hits bear a star; ? = inconclusive; . = no result given; & = joins results of further samples. The list is partial; the hit share may differ from the screen's.
# Start of the data: the first 6 records (preview)
# Screens in order – TRPML1 ag | PINK1 expr mod | D2 agonist
> CC[N+]1(CC(=O)c2ccc(I)cc2)CCCCC1
 : -0.6 | . | .
> Cc1ccccc1CN1[C@H](C)[C@H](c2ccccc2)OCCS1(=O)=O
 : -0.9 | . | .
> C=CCN1CC[C@@H](O)C(=C)S1(=O)=O
 : -0.4 | . | .
> Cc1cc2c(cc1C)N[C@]1(C[C@H]3CCCC(=O)N4CC[C@@H](C1)[C@@H]34)C(=NCc1ccccc1)N2
 : -0.1 | . | .
> O=C([C@@H]1CC=C[C@@H]2CCN(C3CCCCC3)C(=O)[C@@H]21)N1CCOCC1
 : -0.2 | . | .
> Cc1ccc2nc3c(cc(C(=O)NCc4ccco4)c(=N)n3C3CCCC3)c(=O)n2c1
 : . | . | -7.6

# The list itself (from the top)
# Screens in order – TRPML1 ag | PINK1 expr mod | D2 agonist
> CC[N+]1(CC(=O)c2ccc(I)cc2)CCCCC1
 : -0.6 | . | .
> Cc1ccccc1CN1[C@H](C)[C@H](c2ccccc2)OCCS1(=O)=O
 : -0.9 | . | .
> C=CCN1CC[C@@H](O)C(=C)S1(=O)=O
 : -0.4 | . | .
> Cc1cc2c(cc1C)N[C@]1(C[C@H]3CCCC(=O)N4CC[C@@H](C1)[C@@H]34)C(=NCc1ccccc1)N2
 : -0.1 | . | .
> O=C([C@@H]1CC=C[C@@H]2CCN(C3CCCCC3)C(=O)[C@@H]21)N1CCOCC1
 : -0.2 | . | .
> Cc1ccc2nc3c(cc(C(=O)NCc4ccco4)c(=N)n3C3CCCC3)c(=O)n2c1
 : . | . | -7.6
> Cc1cc(C(=O)O)ccc1-c1ccc(/C=C2\SC(=O)N(CC(=O)Nc3ccc4c(c3)OCO4)C2=O)o1
 : . | . | -1.2
> Cc1ccc2nc3sc(C(=O)Nc4ccc(N5CCOCC5)cc4)c(N)c3cc2c1
 : . | . | 2.0
> Cc1cc2oc(=O)cc(CN3CCN(C/C=C/c4ccccc4)CC3)c2cc1O
 : . | . | 0.4
> CC(OC(=O)/C(C#N)=C/c1ccc(N(C)C)cc1)C(=O)NCc1ccco1 (stereo not given)
 : . | . | -2.7
> CN(C)CCCN(C(=O)c1ccc2c(c1)OCCO2)c1nc2ccc(Cl)cc2s1
 : . | . | -0.4
> CN(C)c1ccc(-c2c3ccccc3nc3ccccc23)cc1
 : -0.3 | -0.1% | .
> C=C1OC(CO)(n2cnc3c(N)ncnc32)C(O)C1O (stereo not given)
 : -0.8 | 0.8% | .
> COc1cc(OC)c(OC)cc1/C=C1\C=Cc2ccccc21
 : -0.7 | 1.8% | .
> CC1(C)CC(=O)c2cc(C(=O)NCc3ccccc3)c(=O)[nH]c2C1
 : -0.4 | 1.9% | .
> Cc1ccc(OCCNC(=O)CNC(=O)Cc2cccc3ccccc23)cc1
 : -0.6 | 1.3% | .
> COc1ccc(C(=O)NC(c2ccc(OC)c(OC)c2)c2cc(Cl)c3cccnc3c2O)cc1 (stereo not given)
 : 1.1 | 1.7% | .
> CC[N+](C)(C)c1ccc(/C=C/c2ccc3ccccc3n2)cc1
 : -0.1 | 5.01µM* | .
> Cc1ccc2c(/C=C/c3ccc(N(C)C)cc3)c(C)cnc2c1
 : -0.1 | 8.5% | .
> CCOC(=O)Nc1ccc(/C=C/c2ccnc3ccccc23)cc1
 : -0.3 | 1.7% | .
> COc1ccc(C2Nc3ccc(NC(C)=O)cc3C(=O)N2Cc2cccc(Cl)c2)cc1COc1ccc(NC(C)=O)cc1 (stereo not given)
 : 0.0 | 0.0% | .
> CN(C)c1ccc(C(I)C(I)c2ccnc3ccccc23)cc1 (stereo not given)
 : 18.5 | 4.1% | .
> CCc1nnc(NC(=O)c2ccccc2NC(=O)C2CCN(C(=O)c3ccco3)CC2)s1
 : -1.1 | 5.7% | .
> CCc1ccc(OCCCCn2c(CCNC(=O)C3CCCCC3)nc3ccccc32)cc1
 : -1.0 | 0.7% | .
> Cc1ccc(CNc2ncnc3nc[nH]c23)cc1
 : -1.1 | -0.2% | .
> COc1cc2nc(N3CCCN(C)CC3)nc(NC3CCN(C)C3)c2cc1OC (stereo not given)
 : -0.6 | -1.2% | .
> CC(=O)NCCCc1ccc(C(=O)COC(=O)CNC(=O)c2ccc3ccccc3c2)cc1
 : -0.6 | -0.1% | .
> C(=C\c1nc2ccccc2nc1/C=C/c1ccc2c(c1)OCO2)/c1ccc2c(c1)OCO2
 : 0.9 | -0.2% | .
> O=S(=O)(c1ccc(OC(F)(F)F)cc1)N1CCN(c2nc(-c3cccs3)nc3ccccc23)CC1
 : -0.3 | 1.0% | .
> COc1cc(/C=c2\[nH]c(=O)/c(=C/c3cc(OC)c(OC)c(OC)c3)[nH]c2=O)cc(OC)c1OC
 : -0.7 | 1.8% | .
> O=C(NCCc1nc2ccccc2n1CCOc1ccccc1)C1CCCCC1
 : -0.5 | 1.1% | .
> Cc1cccc(-c2nn(-c3ccccc3)cc2CNCCO)c1
 : 0.4 | 0.8% | .
> O=S(=O)(c1ccc(OC(F)(F)F)cc1)N1CCN(c2nc(-c3ccccc3)nc3ccccc23)CC1
 : -0.6 | 0.6% | .
> COc1cc2nc(N3CCCN(C)CC3)nc(N(C)C)c2cc1OC
 : -0.1 | -0.4% | .
> COc1ccc2[nH]c(C)c(C(=O)CNc3nccs3)c2c1
 : -0.5 | -0.9% | .
> COc1ccc(CCC(=O)NO)cc1
 : -0.3 | 0.3% | .
> Cc1[nH]c2ccccc2c1/C=C/c1c[nH]c2ccccc12
 : -0.3 | 1.4% | .
> CN(C)c1ccc(/C=C/c2ccnc3cc(Cl)ccc23)cc1
 : 105.4* | 4.4% | .
> C[n+]1ccc(/C=C/c2ccc(C=S)cc2)c2ccccc21
 : 17.8 | 44.7µM* | .
> Cc1cc(O)cc2c1O[C@](C)(CCC(=O)O)CC2
 : -0.2 | 3.2% | .
> COc1ccc(N2CCN(C(c3ccccc3)c3nnnn3Cc3ccccc3)CC2)cc1 (stereo not given)
 : -0.6 | -0.7% | .
> Nc1nc(N)c2c(OCc3ccc(C(F)(F)F)cc3)cccc2n1
 : 9.8 | 3.3% | .
> Cc1ccc(NNC(=O)c2sccc2Cl)c(C)c1
 : -0.4 | 1.5% | .
> CC1(C)OC(=O)C2(Cc3ccccc3N3CCC(c4ccccc4)CC32)C(=O)O1 (stereo not given)
 : -0.9 | 0.3% | .
> Brc1ccc[n+](CCc2ccccc2)c1
 : -0.3 | 0.8% | .
> Nc1[nH]c(=S)nc2nnsc12
 : -0.2 | 1.7% | .
> CCCN1CNc2c(c(=O)[nH]c(=S)n2CCc2ccccn2)C1
 : -0.3 | -0.5% | .
> OB(O)c1csc2ccccc12
 : -0.1 | -0.4% | .
> O=Cc1ccsc1B(O)O
 : -0.2 | -0.5% | .
> O=C(Cc1ccccc1)NCC(=O)OCC(=O)c1ccc2ccccc2c1
 : -0.8 | 0.9% | .
> O=C(COc1ccccc1C(=O)OCC(=O)Nc1cccc2ccccc12)Nc1ccc(Br)cc1
 : -0.5 | -0.3% | .
> COc1cc(OC)c(/C=C/c2cc3c4ccccc4ccc3[n+](C)c2)c(OC)c1
 : -0.9 | 3.0% | .
> Cc1ccc(S(=O)(=O)c2cnc(-c3ccccc3)[nH]c2=O)cc1
 : -0.4 | 1.3% | .
> COc1cc2c(NC3CCN(C)CC3)nc(N3CCCN(C)CC3)nc2cc1O
 : -0.3 | -0.6% | .
> O=C1CCc2cc(-c3csc(-c4ccc(O)cc4)n3)ccc2N1
 : -0.4 | 5.9% | .
> COc1cc2nc(N3CCCN(C)CC3)nc(N3CCN(C)CC3)c2cc1OC
 : -0.7 | -0.9% | .
> Cc1ccccc1OCC(=O)NCC(=O)OCC(=O)c1ccc2c(c1)CCCC2
 : -0.1 | 1.0% | .
> CN(C)c1ccc(/C=C2\C=Cc3ccccc32)cc1F
 : -0.4 | 2.5% | .
> COc1ccc(CN(Cc2ccccc2)C(=O)c2ccno2)cc1COc1ccc(NC(C)=O)cc1
 : 0.1 | 0.1% | .
> CC(=O)N(c1ccc(Cl)cc1)C1SC(=O)N(c2ccccc2)C1=O (stereo not given)
 : -0.6 | 2.7% | .

# Copied from the listing for reference:
# Screens in order – TRPML1 ag | PINK1 expr mod | D2 agonist
> CCCN1CNc2c(c(=O)[nH]c(=S)n2CCc2ccccn2)C1
 : -0.3 | -0.5% | .
> OB(O)c1csc2ccccc12
 : -0.1 | -0.4% | .

# New compounds follow.
# Screens in order – TRPML1 ag | PINK1 expr mod | D2 agonist
> O=C(CNC(=O)C(c1ccccc1)c1ccccc1)OCC(=O)c1ccc2ccccc2c1
 : 0.3 | 2.9% | .
> Cc1ccc(S(=O)(=O)NNC(=O)c2ccc(C(=O)N(c3ccccc3)c3ccccc3)cc2)cc1
 : -0.7 | -0.3% | .
> O=C(O)c1[nH]n(-c2ccc(S(=O)(=O)O)cc2)c(=O)c1N=Nc1ccc(S(=O)(=O)O)cc1
 : -0.4 | -0.8% | .
> O=C(C[n+]1ccncc1)c1ccc2ccccc2c1
 : -0.6 | 0.6% | .
> O=[N+]([O-])c1ccc(/C=C2\C=Cc3ccccc32)cc1
 : -0.6 | 0.2% | .
> Oc1ccccc1C1C=C(c2ccc3c(c2)OCO3)NC(c2ccc(Br)cc2)N1 (stereo not given)
 : -0.4 | 1.3% | .
> C1=Nc2ccccc2/C1=C/c1ccccc1
 : 0.0 | 1.9% | .
> Cc1sc2ccccc2[n+]1CCCCBr
 : 0.2 | -0.5% | .
> COC(=O)c1ccc(NC(=O)c2nc(SCc3ccccc3F)ncc2Cl)cc1
 : -0.3 | 2.2% | .
> O=C(Nc1nnc(Cc2ccccc2)s1)C1CCN(C(=O)c2cccs2)CC1
 : 1.4 | -0.9% | .
> C[N+]1(CC(=O)c2c3ccccc3cc3ccccc23)CCOCC1
 : -0.3 | -0.1% | .
> c1nc(NCc2ccc3c(c2)OCO3)c2[nH]cnc2n1
 : -0.3&0.3 | -0.2%&-0.2% | .
> CC(C)(C)c1ccc(C(=O)C[n+]2cccc3cc(Cl)ccc32)cc1
 : 0.4 | 5.1% | .
> Cc1ccc(S(=O)(=O)N(C)CCN(C)c2nc(-c3cccs3)nc3ccccc23)cc1
 : -0.2 | 0.8% | .
> O=C(Nc1ccccc1F)c1cnn2c1NC(=C1CC1)C=C2C(F)F
 : -0.7 | 1.1% | .
> CN(C)c1ccc(/C=C2/CCc3ccccc32)cc1
 : 1.8 | ? | .
> COC(C(=O)C(O)C(C)O)C1Cc2cc3cc(OC4CC(OC5CC(O)C(O)C(C)O5)C(O)C(C)O4)c(C)c(O)c3c(O)c2C(=O)C1OC1CC(OC2CC(OC3CC(C)(O)C(O)C(C)O3)C(O)C(C)O2)C(O)C(C)O1 (stereo not given)
 : 3.9 | -0.1% | .
> Cc1cc(C(Br)(Br)Br)nc2ccccc12
 : -0.9 | 0.1% | .
> CN(C)c1ccc(/C=C/c2ccc3ccccc3[n+]2[O-])cc1
 : 107.3* | 5.4% | .
> CC(=O)ON(C(C)=O)c1ccc(/C=C2\C=Cc3ccccc32)cc1
 : -0.4 | -0.3% | .
> CCCCN(CCCN)c1ccc(Br)cn1
 : -0.6 | -0.3% | .
> CN(C)CCNc1cc(N2CCN(C)CC2)ncn1
 : -0.3 | -0.9% | .
> CNc1cc[n+](C)c2ccccc12
 : -0.3 | 1.9% | .
> COCc1cc(O)c(O)c(O)c1-c1c(COC)cc(O)c(O)c1O
 : -0.4 | -0.4% | .
> Cc1cnc2c(C)ccc(C)c2c1/C=C/c1ccc(N(C)C)cc1
 : -0.2 | 1.3% | .
> Cc1ccccc1-n1c(C)nnc1SC(C)C(=O)NCc1ccco1 (stereo not given)
 : -0.9 | -0.7% | .
> O=S(=O)(c1ccc2c(c1)CCC2)N1CCN(c2nc(-c3ccccc3)nc3ccccc23)CC1
 : -0.2 | -0.2% | .
> Cc1ccc(Nc2c(-c3ccc(C)s3)nc3cccc(C)n23)cc1
 : -0.9 | 1.9% | .
